# VDR inhibitor – Inhibitors of the vitamin D receptor (VDR): qHTS | VDR-SRC2-3 peptide fluorescence polarization, 2 h | Potency, µM, for the others: max response, negative = inhibition, hits mostly inhibitors | hit rate 0.93% among 400,000; active means well fitted inhibition curve with a large enough effect; inconclusive means small, poorly fitted or top-dose-only effect, or another doubt; inactive means no such curve, though single readings can be large or run the other way; further: series mostly up to about 120 µM
# Target sequence (P11473 whole entry, looked up): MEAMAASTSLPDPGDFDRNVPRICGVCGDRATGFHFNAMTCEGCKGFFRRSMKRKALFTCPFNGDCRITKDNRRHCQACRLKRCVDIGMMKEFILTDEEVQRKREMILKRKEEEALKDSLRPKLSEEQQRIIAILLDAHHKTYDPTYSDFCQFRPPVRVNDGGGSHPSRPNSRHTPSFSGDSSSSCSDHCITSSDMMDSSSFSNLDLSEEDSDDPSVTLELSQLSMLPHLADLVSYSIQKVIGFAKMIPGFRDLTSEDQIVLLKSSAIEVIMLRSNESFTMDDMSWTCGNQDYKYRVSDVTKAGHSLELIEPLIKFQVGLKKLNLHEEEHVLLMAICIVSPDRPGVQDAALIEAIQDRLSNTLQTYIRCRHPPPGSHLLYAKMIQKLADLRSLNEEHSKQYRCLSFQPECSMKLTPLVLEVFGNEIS
#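 Compounds are added to VDR with labelled SRC2-3 coactivator peptide and held 2 h at room temperature. Inhibition of the VDR–peptide interaction is then read as a change in fluorescence polarization.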
# The depositor's hits bear a star; ? = inconclusive; & = joins results of further samples. On the % scale 0 is the no-effect control and ±100 the full control effect; potency means the concentration at half of the fitted maximal effect. An excerpt. The share of hits here may be higher or lower than overall.
# The opening 4 compounds as a preview:
SMILES	VDR inhibitor
COc1ccccc1N1CCN(C(=O)c2cc3c(-c4ccc(Cl)cc4)nn(C)c3s2)CC1	-18%
Cc1nc2c(c(C)c1CCC(=O)NCc1ccc(F)cc1)c(=O)n(C)c(=O)n2C	-7%
CCOC(=O)c1cc(-c2ccccc2)n(CCC(=O)Nc2cc(C)cc(C)c2)c1C	15%
COC(=O)CN1C(=O)N/C(=C/c2ccc(OC)c(C)c2OC)C1=O	0%

# Results (from the top)
SMILES	VDR inhibitor
COc1ccccc1N1CCN(C(=O)c2cc3c(-c4ccc(Cl)cc4)nn(C)c3s2)CC1	-18%
Cc1nc2c(c(C)c1CCC(=O)NCc1ccc(F)cc1)c(=O)n(C)c(=O)n2C	-7%
CCOC(=O)c1cc(-c2ccccc2)n(CCC(=O)Nc2cc(C)cc(C)c2)c1C	15%
COC(=O)CN1C(=O)N/C(=C/c2ccc(OC)c(C)c2OC)C1=O	0%
Cc1cc(NS(=O)(=O)c2ccc(NC(=O)c3ccc([N+](=O)[O-])s3)cc2)nc(C)n1	-17%
Cc1ccc(OC(=O)CSc2nnc(-c3ccc4c(c3)OCO4)o2)c(C)c1	4%
CC(C)CNC(=O)c1cccc(NC(=O)c2ccccc2-c2ccccc2C(=O)O)c1	-12%
Clc1cccc(Cl)c1CSc1nnc2ccccn12	-22%
CS(=O)(=O)N1CCC2(CC1)CN(c1ccccn1)C2	13%
CC1CCN(c2ccccc2NC(=S)NC(=O)c2ccco2)CC1	-10%
COc1cccc(CN(CC(=O)NC2CCCC2)C(=O)c2csnn2)c1	8%
C=CCOC(=O)C1=C[C@@H](c2ccccc2)C[C@@H](OCc2ccc(CO)cc2)O1	-14%
Cc1ccc(NC(=O)CN2c3ccccc3S(=O)(=O)c3ccccc32)cc1F	-11%
Cc1ccc(C2CC(=O)Nc3c2c(C)nn3-c2nc(C)cc(C)n2)c(C)c1 (centres undefined)	17%
Cc1cnc(NC(=O)CSc2nnc(COc3c(C)cccc3C)o2)s1	5%
Cc1cc(C)c(S(=O)(=O)c2ccccc2C)c(SCC(C)C)n1	-1%
CCC(=O)Nc1ccnc(-c2cccnc2)n1	15%
O=C(Nc1ccc2c(c1)OCCO2)c1cccnc1	7%
Cc1ccc(/C=N/NC(=O)CC(=O)NCc2cccnc2)cc1	-13%
COc1ccc(C2C=C3CNS(=O)(=O)C3CC2OC(=O)c2ccc(Cl)cc2)cc1 (centres undefined)	-6%
COc1ccccc1C(=O)Nc1ccccc1N1CCOCC1	7%
O=C(c1csnn1)N1CCC2(CCCN(c3ncccn3)C2)CC1	3%
COC(=O)C(O)(CC(=O)Nc1ccc(Cl)cc1F)C(F)(F)F (centres undefined)	18%
CC(C)Oc1cccc(C(=O)Nc2ccc(CN3CCOCC3)cc2)c1	17%
O=C1CCC[C@@H]2Cc3[nH]c4c(Cl)ccc(Cl)c4c3[C@@H]3CCN1[C@H]23	-17%
Cc1cccc(C)c1NC(=O)N1C2CCC1CC(O)(c1cccnc1)C2 (centres undefined)	3%
O=C(c1cc2cc(F)ccc2[nH]1)N1CCc2ccccc2C1	-10%
CCCCC[C@H](O)/C=C/[C@@H]1[C@H](C/C=C\CCCC(=O)O)[C@@H](O)C[C@H]1O	0%&12%
CSc1ccc(CNc2nc3ccccc3n3cnnc23)cc1	-21%
O=C(COC(=O)c1ccc(S(=O)(=O)N2CCCCC2)cc1)Nc1ccccc1	15%
Oc1ccc(C=NNC(=S)Nc2cccnc2)nc1	-15%
CCCCOc1ccc(C(=O)Nc2nc3c(s2)CC(C)CC3)cc1 (centres undefined)	7%
CN(C)c1ccc(/C=N\NC(=O)c2ccc(Cn3cc(Cl)cn3)cc2)cc1	-12%
CCCn1c(CN2CCN(c3ccc(OC)cc3)CC2)nc2c1c(=O)[nH]c(=O)n2C	-18%
Cc1ccc(NNC(=O)c2cc(C)on2)c(C)c1	-2%
COc1ccc(NC(=O)c2cc3c(=O)n(C)c4ccccc4c3s2)cc1Cl	-4%
CC(c1ccccc1)n1cnc2ccccc21 (centres undefined)	-2%
Cn1c(=O)oc2cc(S(=O)(=O)N3CCCC(C(=O)NCc4ccc5c(c4)OCO5)C3)ccc21 (centres undefined)	-8%
CCc1ccc2cccc3c2c1N=CN3C	-1%
COCCn1nnnc1SCC(=O)c1ccccc1	-5%
COc1ccc(S(=O)(=O)Nc2cccc(-c3ccc(N4CCCC4)nn3)c2)c(OC)c1	-5%
N[C@@H](CCCC(=O)O)C(=O)O	1%
Nc1nc(C(=O)N2CCOCC2)nn1S(=O)(=O)c1ccccc1	3%
COc1ccccc1CNc1nc(-c2ccc(C(=O)N(C)C)cc2)nc2ccccc12	-15%
CC(OC(=O)c1cc(=O)[nH]c2ccccc12)C(=O)N1C(C)CCCC1C (centres undefined)	-13%
Cc1sc2ncnc(N3CCC(C(=O)NNC(=O)COc4ccccc4F)CC3)c2c1C	-6%
C#Cc1ccc([C@H]2C=C(C(=O)NCc3nc4ccccc4[nH]3)O[C@@H](OCC)[C@@H]2CCCO)cc1	-12%
CCCCn1c(SCC(=O)Nc2cccc(OC)c2)nc2c(sc3ccccc32)c1=O	2%
O=C(c1ccc(Cl)cc1Cl)N1CCN(c2ccccn2)CC1	-2%
COc1ccccc1NC(=O)COc1ccccc1C(=O)c1cnn(-c2ccccc2)c1	-1%

# (cont.)
SMILES	VDR inhibitor
O=C(OCc1cc(=O)n2nc(C3CCCCC3)sc2n1)c1ccc(F)cc1	5%
O=C(O)CN(c1ccccn1)S(=O)(=O)c1ccccc1	6%
CCOC(=O)CN1C(=O)c2ccccc2C1=O	4%
CC(=O)c1ccc(NC(=O)CSc2nnc3ccc(-c4ccc(Br)cc4)nn23)cc1	3%
COc1ccc(NC(=O)N2CCCCC2)cc1	-8%
C/C(=C\c1ccc(N)cc1)c1nc2ccccc2[nH]1	1%
CCCC(OC(=O)CC1Sc2ccccc2NC1=O)C(=O)NCc1ccco1 (centres undefined)	0%
Cc1cc(C)nc(SCC(=O)Nc2sc3c(c2C#N)CCC(C)C3)n1 (centres undefined)	6%
COc1ccc(CCNC(=O)CSc2nc3[nH]ncc3c(=O)n2-c2ccc(Br)cc2)cc1OC	?
COc1ccc(S(=O)(=O)N2CC(=O)Nc3ccccc32)cc1	15%
Nc1ccc(-c2cc3ccccc3oc2=O)cc1	-5%
COC(=O)c1c(NC(=O)c2cccc(OC)c2)sc2c1CCC(C(C)(C)C)C2 (centres undefined)	-5%
COc1ccc(C)cc1NC(=O)N1CCC(CN2CCC(C)CC2)CC1	17%
Cc1ccc(S(=O)(=O)Nc2ccc(N3CCOCC3)cc2)cc1[N+](=O)[O-]	-1%
CCOC(=O)c1c(S(=O)(=O)N2CCN(c3cc(Cl)ccc3C)CC2)c(C)n(C)c1C	0%
COc1cc2nc(SCc3c(C)noc3C)n(CCC3=CCCCC3)c(=O)c2cc1OC	-6%
Cc1ccc(C)c(C(=O)CN2C(=O)NC3(CCc4ccccc43)C2=O)c1 (centres undefined)	9%
Cc1ccc(NC(=O)Nc2ccc3c(c2)OCO3)cc1F	-10%
CN(C)Cc1ccccc1-c1nccc(N(C)C)n1	-4%
COCCNC(=O)CCCn1c(SCC(=O)c2ccc(F)cc2)nc2c(sc3ccccc32)c1=O	15%
Cc1cccc(NC(=O)C2(c3cccs3)CCOCC2)c1	2%
Cc1cc(-c2ccccc2)n2nc(C)c(C#N)c2n1	-8%
COc1ccc(CNC(=O)C(CC(C)C)NS(=O)(=O)c2ccc3c(c2)oc(=O)n3C)cc1 (centres undefined)	3%
S=c1[nH]nc(-c2ccco2)n1Cc1ccccc1	3%
COc1ccccc1N1CCN(C(=O)CCc2ccc(S(=O)(=O)NC(C)C)cc2)CC1	-6%

# Quoted from the listing:
# VDR inhibitor, `COCCNC(=O)CCCn1c(SCC(=O)c2ccc(F)cc2)nc2c(sc3ccccc32)c1=O` reads 15%
# VDR inhibitor, `Cc1ccc(NC(=O)Nc2ccc3c(c2)OCO3)cc1F` reads -10%
# VDR inhibitor, `CN(C)Cc1ccccc1-c1nccc(N(C)C)n1` reads -4%

# The listing continues.
Compound	VDR inhibitor
O=C(Cc1c(F)cccc1Cl)Nc1ccccn1	-25%
CC(C)OC(=O)c1ccc(OC(=O)c2cccnc2)cc1	-17%
COc1cccc(C(C(=O)NC2CCCCC2)N(C(=O)c2ccco2)c2ccc(-n3cnnn3)c(C)c2)c1 (centres undefined)	-4%
N#CC1=C(N)C(C#N)(C#N)[C@H](c2ccncc2)[C@H]2CN(C(=O)OCc3ccccc3)CC=C12	?
COc1ccc(-c2nn(-c3cccc([N+](=O)[O-])c3)c3c2cnc2cc4c(cc23)OCO4)cc1	1%
COc1cc(C(C)=O)ccc1COc1ccc(C(=O)OCC(N)=O)cc1OC	9%
CCc1c(C)nc2cc(-c3cc(OC)cc(OC)c3)nn2c1N1CCCC1	14%
CC(=O)c1cccc(NC(=S)NC(=O)Cc2ccc(Cl)cc2)c1	3%
O=c1cc(-c2ccccc2)nc(SCc2ccccc2F)[nH]1	6%
CC(C)(C)C1CCC(=NNC(=S)NCc2ccccc2)CC1 (centres undefined)	-2%
O=C1NN(c2ccc(F)c(Cl)c2)C(=O)/C1=C\c1cccc(OC(=O)c2cccs2)c1	22µM*
CCOC(=O)COc1ccc(S(=O)(=O)Nc2ccc(C)cc2)cc1	-2%
CC=Cc1cc2c(c(=O)o1)C(=O)C(O)C(C)O2 (centres undefined)	-24%
COC1(NC(=O)c2ccccc2)C(C)=CC(=O)C=C1C	3%
CCCOC(=O)c1cc(-c2ccc(C=O)o2)ccc1Cl	-25%
COc1ccc(C2=C(C)C(=O)N(Cc3ccc(C(=O)Nc4ccc(C)c(C)c4)cc3)S2(=O)=O)cc1	9%
CC(=O)Nc1ccc(NS(=O)(=O)c2ccc3c(c2)NC(=O)CC(=O)N3)cc1	-8%
CCC(C)c1ccc(NC(=O)COC(=O)C2CCCC2)cc1 (centres undefined)	-6%
CCC(C)[C@H](NC(=O)NCc1ccc(Cl)cc1)C(=O)OC (some centres undefined)	-18%
CC(=O)Nc1ccc(Nc2cc(C)nc3c(-c4ccccc4)c(C)nn23)cc1	14%
COc1ccc(C2=Nn3c(nnc3C(F)(F)F)SC2)cc1	-15%
O=c1[nH]cnc2onc(-c3ccc(F)cc3)c12	-12%
O=C(NC(NC(=S)Nc1c(Cl)cc(Cl)cc1Cl)C(Cl)(Cl)Cl)OCc1ccccc1 (centres undefined)	-9%
Cn1nnnc1SCc1cccc2ccccc12	-8%
Cc1ccc2[nH]c(C(=O)N/N=C/c3ccccc3O)c(C)c2c1	-8%
O=C(O)c1cc(NN=C2CCN(Cc3ccccc3)CC2)ccc1Cl	-11%
Cn1c(/C=N/NC(=O)c2ccccc2)nc2ccccc21	-5%
CN1C[C@@H]2C(c3ccccc3)C3(c4ccc(C#N)cc4)CC2(C3)[C@H]1c1ccccc1 (some centres undefined)	-9%
NC(=O)c1c(NC(=S)Nc2ccccc2)sc2c1CCCC2	?
N#C/C(=C\c1ccc(Cl)cc1)c1nc2ccccc2o1	-9%
CCN(CC)N=Nc1cccc(NC(C)=O)c1	7%
C=CC[C@H](CC(=O)N[C@H](CO)Cc1ccccc1)C(=O)N[C@@H](COC(=O)[C@H](CC=C)CC(=O)OC(C)(C)C)Cc1c[nH]c2ccccc12	-7%
CCOC(=O)CNS(=O)(=O)c1c(C)noc1C	6%
Cc1c(NC(=O)c2ccc(Cl)c(S(=O)(=O)N3CCOCC3)c2)c(=O)n(-c2ccccc2)n1C	9%
CCOc1ccccc1N1CCN(Cc2cc3c(cc2[N+](=O)[O-])OCO3)CC1	0%
CCC(C)(C)NC(=O)Cn1c(-c2ccccc2)cc(C(C)=O)c1C	6%
CCc1ccc(NC(=S)Nc2ccc(S(=O)(=O)Nc3ncccn3)cc2)cc1	-6%
CC(C)(C)NC(=O)COc1ccc(CNc2ncn[nH]2)cc1	-2%
CC(C)(C)C1CCC(C(=O)OCC(=O)N2CCN(C(=O)c3ccco3)CC2)CC1 (centres undefined)	-17%
Oc1ccc(-c2nccc(-c3ccccn3)n2)cc1	-11%
Cc1ccccc1-n1c(SCC(=O)N(C)C2CCS(=O)(=O)C2)nc2ccccc2c1=O (centres undefined)	12%
COC1=NS(=O)(=O)c2ccccc21	-10%
[O-]/[N+](=C\c1ccncc1)c1ccc(Br)cc1	45µM*
Cc1cc(-n2c(C)cc(C(=O)CSc3nc(N)cc(=O)[nH]3)c2C)no1	1%
CN1CCN(S(=O)(=O)c2cccc(C(=O)Oc3cccc(C#N)c3)c2)CC1	2%
CN(C)CCN(C(=O)c1ccc2c(c1)OCCO2)c1nc2ccc(Cl)cc2s1	8%
CN=c1nc(-c2ccccc2)n(-c2ccccc2)s1	50µM*
COC(=O)/C(=C/c1ccc(F)cc1)NC(C)=O	-3%
Cc1cc(C)n2nc(C(=O)N(C)C(c3ccccc3)c3ccccc3)nc2n1	-14%
COc1cccc(/C=N/Nc2nc3ccccc3[nH]2)c1O	-9%

# Next structures:
Compound	VDR inhibitor
CC(=O)Oc1c(Cl)cc(Cl)cc1/C=C/c1ccc2ccccc2n1	-7%
COc1cccc(CNS(=O)(=O)c2c(C(=O)N3CCCCCC3)c(C)n(C)c2C)c1	-16%
O=C(CNC(=O)c1cc2c(n(-c3ccccc3)c1=O)CCCC2=O)c1ccccc1	-8%
NC(=O)c1cc(S(=O)(=O)N2CCOCC2)ccc1N1CCCC1	-20%
CCOCCCNC(=S)N(CCO)Cc1cc2cc3c(cc2[nH]c1=O)OCCO3	-12%
Cc1c(Cl)cccc1NC(=O)CN1C(=O)CSc2ccc(S(=O)(=O)N3CCCC3)cc21	4%

# Exported field by field: 2 of the compounds above.
> CCCCOc1ccc(C(=O)Nc2nc3c(s2)CC(C)CC3)cc1 (centres undefined)
  VDR inhibitor = 7%
> CN(C)c1ccc(/C=N\NC(=O)c2ccc(Cn3cc(Cl)cn3)cc2)cc1
  VDR inhibitor = -12%

# Looked up by compound from above:
Compound	VDR inhibitor
CC(OC(=O)c1cc(=O)[nH]c2ccccc12)C(=O)N1C(C)CCCC1C (centres undefined)	-13%
CCc1ccc2cccc3c2c1N=CN3C	-1%
COc1ccccc1CNc1nc(-c2ccc(C(=O)N(C)C)cc2)nc2ccccc12	-15%

# From PubChem
